High-throughput results as filed in PubChem BioAssay.
Pol kappa inh = inhibitors of human DNA polymerase kappa. purified Pol kappa, fluorescent DNA synthesis assay, 10 min. 400,000 tested, 0.53% active. Potency, µM (highest dose often 107 µM), for inactives: at the top dose activity, negative = inhibition, actives largely listed as inhibitors; further: on the % scale 0 is the no-effect control and ±100 the full control effect
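Kinetic fluorescence screen: compound preincubated 15 min RT with 10 nM enzyme; 50 nM substrate (final) initiates; reads at 0/10 min.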
BLM helicase inh = Bloom syndrome helicase (human) inhibition | 350,000 tested, 0.2% active | Potency, µM (doses to about 56.1 µM), for inactives: at the top dose activity change, negative = inhibition, hits mostly inhibitors | recombinant BLM DNA unwinding, fluorescence dequenching | AID 2528;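 further: plate controls were vehicle for no effect and no enzyme for full effect; nearly all actives have a fitted effect of over 35% in size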
G9a inh = G9a (human) methyltransferase inhibition; Potency, µM (series often up to 102 µM), inactives show top-dose activity, negative = inhibition, hits mostly inhibitors; G9a H3K9 monomethylation, AlphaScreen, 2 h; 350,000 tested, 8.8% active; Q96KQ7; further: on the % scale 0 is the no-effect control and ±100 the full control effect; nearly all actives have a fitted effect of over 75% in size
Target sequence (Q96KQ7 913-1193 limits assumed): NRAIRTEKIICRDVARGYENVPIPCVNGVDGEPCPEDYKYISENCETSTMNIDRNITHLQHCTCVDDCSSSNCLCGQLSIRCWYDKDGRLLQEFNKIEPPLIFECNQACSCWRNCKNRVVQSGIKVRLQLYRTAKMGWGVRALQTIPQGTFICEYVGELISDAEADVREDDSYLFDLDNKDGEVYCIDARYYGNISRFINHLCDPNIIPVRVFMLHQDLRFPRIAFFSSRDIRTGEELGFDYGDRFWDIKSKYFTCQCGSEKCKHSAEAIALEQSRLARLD
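Quantitative HTS format: methyltransferase activity on a biotin-tagged H3K9 peptide is measured by AlphaScreen, using a rabbit anti-monomethyl-H3K9 antibody with streptavidin donor and anti-IgG acceptor beads. Final levels are 20 nM enzyme, 500 nM peptide, 20 uM SAM; 2 h RT.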
POLI inh = blocks human DNA polymerase iota activity. Q9UNA4. AID 588590. 390,000 tested, 1% active. Potency, µM (titrated, usually from 115 µM), without a hit: at the highest dose activity, negative = inhibition, actives largely listed as inhibitors. Pol iota fluorescent replication assay, 10 min
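Fluorescent replication assay read twice, at 0 min and 10 min after adding 50 nM (final) substrate. Enzyme (10 nM) and compounds were first incubated 15 min at room temperature; enzyme-free buffer wells were negative controls.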
Numbers without * were called inactive; ? = inconclusive; . = no result given; & = joins results of further samples; [ ] = remark or other dose. The call rests on the fitted dose curve; in most records, active means well fitted curve in the direction sought with a large enough effect; inconclusive means small, poorly fitted or top-dose-only effect, or another doubt; inactive means no such curve, though single readings can be large; an effect the other way counts as inactive or inconclusive. Potency means the concentration at half of the fitted maximal effect.

no. | Pol kappa inh | BLM helicase inh | G9a inh | POLI inh | Structure
1 | -6% | 0% | 7%[59 µM] | -5% | O=C(CN1CCN(Cc2ccccc2)CC1)N/N=C/C=C/c1ccccc1[N+](=O)[O-]
2 | -15% | 2% | 40µM* | ? | COc1cc(/C=C2\CCCc3c2nc2ccccc2c3C(=O)O)cc(Br)c1O
3 | -10% | 2% | ? | -6% | CCn1c(COc2ccc(Cl)cc2)nnc1SCC(=O)Nc1ccc2c(c1)OCCO2
4 | -5% | -1% | -19% | 8% | COc1ccc(-c2nc3ccccc3o2)cc1NC(=O)c1ccc(Br)o1
5 | -5% | -6% | -1%[12.7 µM] | -4% | CCN(CC)CCNc1nc2nonc2nc1NCCN(CC)CC
6 | -1% | -4% | 3% | 2% | CC(O)c1cccc(NC(=O)CCCc2ccccc2)c1 (stereo not drawn)
7 | -3% | . | . | 54%[activator] | CC(=O)Nc1ccc(S(=O)(=O)N[C@@H](C)C(=O)OCC(=O)c2ccc[nH]2)cc1
8 | 3% | 4% | 6%[59 µM] | 15% | Cc1cc(C)c(NC(=O)C2CCCN2C(=O)NC2CCCCC2)c(C)c1 (stereo not drawn)

A draw from above in order of formula weight, ascending:
no. | Pol kappa inh | BLM helicase inh | G9a inh | POLI inh | Structure
5 | -5% | -6% | -1%[12.7 µM] | -4% | CCN(CC)CCNc1nc2nonc2nc1NCCN(CC)CC
1 | -6% | 0% | 7%[59 µM] | -5% | O=C(CN1CCN(Cc2ccccc2)CC1)N/N=C/C=C/c1ccccc1[N+](=O)[O-]
4 | -5% | -1% | -19% | 8% | COc1ccc(-c2nc3ccccc3o2)cc1NC(=O)c1ccc(Br)o1
3 | -10% | 2% | ? | -6% | CCn1c(COc2ccc(Cl)cc2)nnc1SCC(=O)Nc1ccc2c(c1)OCCO2

(list continues)
no. | Pol kappa inh | BLM helicase inh | G9a inh | POLI inh | Structure
9 | -6% | -1% | 17% | 19% | Cc1cccc(-c2nnc(SCC(=O)O)n2Cc2ccccc2)c1
10 | -5% | 2% | ? | -9% | Cc1cccc(NC2SC(=O)N(CC(=O)O)C2=O)c1 (stereo not drawn)
11 | -8% | 1% | ? | 106%[activator] | CCOC(=O)CN1C(=O)SC(Nc2ccc(C)cc2)C1=O (stereo not drawn)
12 | -11% | . | . | 7% | O=C(NN=Cc1ccc(F)c(F)c1)c1ccc(NS(=O)(=O)c2cccs2)cc1
13 | -2% | -9%[12.4 µM] | 1%[12.7 µM] | ? | COC(=O)CCC(=O)OC1(C)C(=O)C=C2C=C(C3CC3)N(CCc3ccccn3)C=C2C1=O (stereo not drawn)
14 | -8% | -2% | 2%[0.501 µM] | 11% | O=C(/C=C/c1ccc(Cl)cc1Cl)NCc1ccco1
15 | 0% | 50%[activator] | 50µM* | 4% | CCCNC(=O)c1ccc(Cl)cc1Cl
16 | 4% | -7% | . | 2% | COc1cc(/C=C2\CCCc3c2nc2ccccc2c3C(=O)O)cc(OC)c1O
17 | -4% | -9% | . | 21% | O=C(O)C1c2ccccc2C(=O)N(Cc2ccc(F)cc2)C1c1ccncc1 (stereo not drawn)
18 | -12% | -4% | ? | 8% | O=C(O)c1cc2ccc3ccccc3c2oc1=O
19 | -7% | -2% | 23%[59 µM] | 26% | O=C(/C=C/c1ccccc1Cl)NCCc1ccccc1
20 | -3% | 4% | -43% | 124%[activator] | CN1CCN(C(=O)CNc2ccc(C(F)(F)F)cc2[N+](=O)[O-])CC1
21 | -11% | -11% | . | -4% | COc1ccc(-c2cc3ccccc3oc2=O)cc1NC(=O)c1ccc([N+](=O)[O-])o1
22 | -4% | 1% | 89µM* | -15% | Cc1cc(C)c(NC(=O)C2CCCCN2C)c(C)c1 (stereo not drawn)
23 | -8% | -2% | . | 84%[activator] | CC(C)c1ccc(NC(=O)CCc2ccccc2)cc1
24 | -2% | . | 15%[12.7 µM] | 6% | CN(CC(=O)Nc1cccc(F)c1)C(=O)c1ccccc1Sc1ccccc1C#N
25 | -15% | . | -40% | 35%[activator] | O=C(COC(=O)CNC(=O)c1cccs1)Nc1ccc(C(F)(F)F)cc1[N+](=O)[O-]
26 | -6% | 2% | -120%[0.0925 µM] | 20% | CC1=C(C(=O)Nc2cccnc2)C(c2ccccn2)n2nnnc2N1 (stereo not drawn)
27 | 10% | -4% | . | 13% | Cc1ccc(-n2c(SCC(N)=O)nnc2-c2ccco2)cc1
28 | -4% | -15% | 11%[12.7 µM] | -19% | COc1cccc(-c2nc(-c3ccc(NC(=O)Cc4ccccc4OC)cc3)no2)c1
29 | 3% | -5% | . | -13% | O=C1Nc2cc(C(=O)N3CCN(c4ccccn4)CC3)ccc2S/C1=C\c1ccccc1
30 | -36% | -5% | 11%[59 µM] | -24% | O=C(/C=C/c1ccc(Cl)c(Cl)c1)NCc1ccco1
31 | -6% | 2% | 12% | 6% | COc1ccc(-c2nc(-c3ccc(NC(=O)c4ccncc4)cc3)no2)cc1OC
32 | -13% | . | . | 7% | COC(=O)[C@H](C(C)C)N(Cc1ccccc1)S(=O)(=O)CCN1CCN(c2ccccc2)CC1
33 | 10% | . | 4%[0.501 µM] | ? | NC(=O)c1ccc(-c2c(-c3ccccc3)sc3ccccc23)cc1
34 | 2% | 2% | . | 138%[activator] | CC(C)CCn1nnnc1CN1CCN(c2ccccc2)CC1
35 | 0% | -3% | 9% | 10% | COc1cccc(-c2nc(-c3ccc(NC(=O)c4cccs4)cc3)no2)c1
36 | -9% | 5% | ? | 16% | Cc1cc(C)c(NC(=O)C2CCCN2CCC(C)C)c(C)c1 (stereo not drawn)
37 | -19%&2% | 1%[75.6 µM] | 32µM* | 22% | COc1ccc(NC(=O)c2ccc(Br)o2)cc1
38 | ? | -23% | -8%[59 µM] | ? | COc1cccc(/C=C/C(=O)OCC(=O)NCc2ccco2)c1
39 | -3% | -3% | -8%[59 µM] | 8% | O=C(NCCc1ccccc1)Nc1ccc(Cl)cc1
40 | -11% | -13% | 4%[59 µM] | 20% | CCn1c(Cc2ccccc2)nnc1SCC(=O)Nc1ccc(C)cc1

Continued, starting with the last 2 of the part before.
no. | Pol kappa inh | BLM helicase inh | G9a inh | POLI inh | Structure
39 | -3% | -3% | -8%[59 µM] | 8% | O=C(NCCc1ccccc1)Nc1ccc(Cl)cc1
40 | -11% | -13% | 4%[59 µM] | 20% | CCn1c(Cc2ccccc2)nnc1SCC(=O)Nc1ccc(C)cc1
41 | -10% | -4% | -32%[59 µM] | -1% | CCOc1ccc(C=NC23CN4CN(CN(C4)C2)C3)cc1
42 | -3% | 1% | ? | 9% | COc1cc(/C=C2\CCCc3c2nc2ccccc2c3C(=O)O)cc(Cl)c1O
43 | -7% | . | . | -25% | O=C(NN=Cc1ccc(OC(F)F)cc1)c1ccc(NS(=O)(=O)c2cccs2)cc1
44 | 1% | . | . | 4% | OC[C@@H](O)[C@@H](O[C@@H]1O[C@H](CO)[C@H](O)[C@H](O)[C@H]1O)[C@H](O)[C@@H](O)CO
45 | 0% | . | -4% | 20% | CN(CC(=O)Nc1cccc(F)c1)C(=O)c1cccnc1Sc1ccccc1Cl
46 | 0% | -11% | 32µM* | 26% | CN(C)C(CNc1ccc(C(F)(F)F)cc1[N+](=O)[O-])c1ccccc1 (stereo not drawn)
47 | -4% | 1% | . | -5% | O=C(O)c1ccc(S(=O)(=O)N2CCSCC2)cc1
48 | 0% | -3% | -24%[12.7 µM] | 15% | Cc1cc(C)c(NC(=O)C2CCCN2CCO)c(C)c1 (stereo not drawn)
49 | -12% | -4% | -30% | 5% | COc1ccc(-c2nc(-c3ccc(NC(=O)c4ccc(Br)o4)cc3)no2)cc1OC
50 | -20% | -16% | 0% | -7% | COC(=O)C1=CN(c2cccc(C(F)(F)F)c2)C=C(C(=O)OC)C1c1ccc(O)c(OC)c1
51 | -18% | . | . | -20% | O=C(/C=C/c1ccco1)OCC(=O)N1CCCCC1
52 | -14% | 6% | 8%[59 µM] | 19% | CCn1c(CNc2ccc(C)cc2)nnc1SCC(N)=O
53 | ? | -1% | 11µM* | -95% | Cc1nc(S/C(=C/c2ccc(-c3ccc(C(=O)O)cc3)o2)C(=O)O)n[nH]1
54 | -7% | -4% | -33% | 3% | CCCC(=O)NC(=S)Nc1cccc(NC(=O)c2ccc(Cl)cc2Cl)c1

An excerpt of these results, bar-delimited.
# | structure | Pol kappa inh | BLM helicase inh | G9a inh | POLI inh
54 | CCCC(=O)NC(=S)Nc1cccc(NC(=O)c2ccc(Cl)cc2Cl)c1 | -7% | -4% | -33% | 3%
51 | O=C(/C=C/c1ccco1)OCC(=O)N1CCCCC1 | -18% | . | . | -20%
53 | Cc1nc(S/C(=C/c2ccc(-c3ccc(C(=O)O)cc3)o2)C(=O)O)n[nH]1 | ? | -1% | 11µM* | -95%
52 | CCn1c(CNc2ccc(C)cc2)nnc1SCC(N)=O | -14% | 6% | 8%[59 µM] | 19%

Molecules shown so far with a CF3 group:
no. | Pol kappa inh | BLM helicase inh | G9a inh | POLI inh | Structure
20 | -3% | 4% | -43% | 124%[activator] | CN1CCN(C(=O)CNc2ccc(C(F)(F)F)cc2[N+](=O)[O-])CC1
25 | -15% | . | -40% | 35%[activator] | O=C(COC(=O)CNC(=O)c1cccs1)Nc1ccc(C(F)(F)F)cc1[N+](=O)[O-]
46 | 0% | -11% | 32µM* | 26% | CN(C)C(CNc1ccc(C(F)(F)F)cc1[N+](=O)[O-])c1ccccc1 (stereo not drawn)
50 | -20% | -16% | 0% | -7% | COC(=O)C1=CN(c2cccc(C(F)(F)F)c2)C=C(C(=O)OC)C1c1ccc(O)c(OC)c1

Only part of the results is shown. The share of hits here may be higher or lower than overall.
